A1 apoptosis 2: compounds inhibiting A1, read as caspase activation; MEF A1-2A-BIM cells, caspase-Glo luminescence, 3 h; percent of clofoctol response, DMSO zero; caspase activation, % (no concentration beside the values); 24,000 tested, under 10 active; AID 2465; in the data active means caspase activation above about 5.9%;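 further: wells of about 30 µL received 50 nL stock; the first replicate is given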
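System: mouse embryonic fibroblasts co-expressing A1 and BIM (A1-2A-BIM), primed for A1 dependence; amount: 2500 cells/well; doses: 50 nL pinned compound; schedule: cells settled overnight, compound exposure 3 h at 37 °C, 5% CO2; detection: Caspase-Glo 3/7 luminescence, 1 h at room temperature; read-out: Caspase-3/7 activation, seen as rise in luminescence signal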
* hit, by the source's call. An excerpt, so the mix of outcomes need not match the whole.

Screening C[C@@H]1CN([C@@H](C)CO)C(=O)c2cccc(NC(=O)c3ccc(-c4nccs4)cc3)c2O[C@@H]1CN(C)Cc1ccc(C(F)(F)F)cc1 returned A1 apoptosis 2 0.6.
`COc1ccc(S(=O)(=O)Nc2ccc3c(c2)C(=O)N([C@@H](C)CO)C[C@@H](C)[C@@H](CN(C)S(=O)(=O)c2ccc(C)cc2)O3)cc1` gave A1 apoptosis 2 0.7.
`C[C@@H]1CCCCO[C@@H](CN(C)C(=O)Nc2ccc3c(c2)OCO3)[C@H](C)CN([C@@H](C)CO)C(=O)c2cc(NC(=O)CCCN(C)C)ccc2O1` gave A1 apoptosis 2 -0.4.
Screening CC(C)NC(=O)Nc1ccc2c(c1)C(=O)N([C@H](C)CO)C[C@H](C)[C@H](CN(C)Cc1ccc(C(F)(F)F)cc1)OCCCC[C@@H](C)O2 returned A1 apoptosis 2 -0.3.
Screening Cc1noc(C)c1NC(=O)Nc1ccc2c(c1)C(=O)N([C@@H](C)CO)C[C@H](C)[C@H](CN(C)CC1CCCCC1)OCCCC[C@@H](C)O2 returned A1 apoptosis 2 0.3.
For C[C@H]1CCCCO[C@H](CN(C)Cc2ccccc2)[C@@H](C)CN([C@@H](C)CO)C(=O)c2cc(NS(=O)(=O)c3cccs3)ccc2O1 the results were A1 apoptosis 2 -0.1.
For C[C@H]1CN([C@@H](C)CO)C(=O)c2cccc(NC(=O)c3nc4ccccc4s3)c2O[C@H]1CN(C)S(C)(=O)=O the results were A1 apoptosis 2 1.6.
`C[C@@H]1CN([C@H](C)CO)C(=O)CCCn2cc(nn2)CO[C@@H]1CN(C)S(=O)(=O)c1ccc(-c2ccccc2)cc1` gave A1 apoptosis 2 -0.1.
For C[C@@H]1CN([C@@H](C)CO)C(=O)c2cccc(NC(=O)C3CCOCC3)c2O[C@H]1CN(C)Cc1ccc2c(c1)OCO2 the results were A1 apoptosis 2 1.2.
Screening Cc1noc(C)c1S(=O)(=O)Nc1ccc2c(c1)CC(=O)N([C@@H](C)CO)C[C@@H](C)[C@@H](CN(C)C(=O)Nc1ccccc1)O2 returned A1 apoptosis 2 1.0.
Cc1ccc(S(=O)(=O)Nc2ccc3c(c2)C(=O)N([C@@H](C)CO)C[C@H](C)[C@H](CN(C)S(=O)(=O)c2ccc(Cl)cc2)O3)cc1 was read as A1 apoptosis 2 0.4.
Screening C[C@@H]1CCCCO[C@H](CN(C)C(=O)NC2CCCCC2)[C@@H](C)CN([C@@H](C)CO)C(=O)c2cc(NS(=O)(=O)c3cn(C)cn3)ccc2O1 returned A1 apoptosis 2 0.1.
For C[C@@H]1CCCCO[C@@H](CN(C)S(=O)(=O)c2cccs2)[C@@H](C)CN([C@@H](C)CO)C(=O)c2cc(N(C)C)ccc2O1 the results were A1 apoptosis 2 -1.4.
For NC(=O)COc1ccc(/C=N/NC(=O)c2ccccn2)cc1 the results were A1 apoptosis 2 -6.5.
For Cc1ccc(S(=O)(=O)N(C)C[C@@H]2OCCCC[C@H](C)Oc3ccc(NC(=O)Nc4c(C)noc4C)cc3C(=O)N([C@@H](C)CO)C[C@@H]2C)cc1 the results were A1 apoptosis 2 0.9.
CNC[C@@H]1OCc2cn(nn2)CCCC(=O)N([C@H](C)CO)C[C@H]1C was read as A1 apoptosis 2 -0.3.
Screening C[C@@H]1CN([C@@H](C)CO)C(=O)c2cccc(NC(=O)Nc3ccc(F)cc3)c2O[C@@H]1CN(C)C(=O)NC1CCCCC1 returned A1 apoptosis 2 -1.0.
`C[C@H]1CN([C@@H](C)CO)C(=O)c2cccc(NC(=O)c3ccc(-c4nccs4)cc3)c2O[C@@H]1CN(C)S(=O)(=O)c1ccccc1` gave A1 apoptosis 2 1.0.
C[C@@H]1CN([C@H](C)CO)C(=O)Cc2cc(NC(=O)Cc3ccccc3)ccc2O[C@@H]1CN(C)S(=O)(=O)c1ccc(F)cc1 was read as A1 apoptosis 2 -0.4.
C[C@@H]1CCCCO[C@H](CN(C)CC2CCCCC2)[C@@H](C)CN([C@H](C)CO)C(=O)c2cc(NC(=O)Nc3ccc(F)cc3)ccc2O1 was read as A1 apoptosis 2 0.2.
For C[C@@H]1CN([C@H](C)CO)C(=O)c2cccc(N(C)C)c2O[C@@H]1CN(C)C(=O)Nc1cccc2ccccc12 the results were A1 apoptosis 2 0.8.
COc1ccc(S(=O)(=O)Nc2ccc3c(c2)CC(=O)N([C@@H](C)CO)C[C@@H](C)[C@@H](CN(C)Cc2ccc4c(c2)OCO4)O3)cc1 was read as A1 apoptosis 2 0.2.
For C[C@H](CO)N1C[C@H](C)[C@@H](CN(C)Cc2ccc(Cl)c(Cl)c2)Oc2ccc(NC(=O)Nc3ccc(C(F)(F)F)cc3)cc2CC1=O the results were A1 apoptosis 2 0.1.
`C[C@@H]1CN([C@H](C)CO)C(=O)c2cccc(NC(=O)c3ccncc3)c2O[C@@H]1CN(C)Cc1ccc(C(=O)Nc2ccccc2N)cc1` gave A1 apoptosis 2 1.9.
C[C@@H]1CN([C@@H](C)CO)C(=O)Cc2cc(NC(=O)CCN3CCOCC3)ccc2O[C@H]1CN(C)Cc1ccc(Oc2ccccc2)cc1 was read as A1 apoptosis 2 -0.7.
For COc1ccc(S(=O)(=O)Nc2cccc3c2O[C@H](CN(C)C)[C@H](C)CN([C@@H](C)CO)C3=O)cc1 the results were A1 apoptosis 2 0.9.
For C[C@H](CO)N1C[C@H](C)[C@H](CN(C)Cc2ccc(C(=O)O)cc2)OCCCC[C@H](C)Oc2ccc(NC(=O)Nc3ccccc3)cc2C1=O the results were A1 apoptosis 2 -0.2.
For C[C@H]1CN([C@@H](C)CO)C(=O)c2cccc(NC(=O)C3CCOCC3)c2O[C@@H]1CN(C)S(=O)(=O)c1ccc(F)cc1 the results were A1 apoptosis 2 0.3.
COc1ccc(S(=O)(=O)Nc2ccc3c(c2)C(=O)N([C@H](C)CO)C[C@@H](C)[C@H](CN(C)Cc2ccncc2)OCCCC[C@@H](C)O3)cc1 was read as A1 apoptosis 2 -0.3.
C[C@H](CO)N1C[C@H](C)[C@H](CN(C)S(=O)(=O)c2ccc(F)cc2)Oc2ccc(NC(=O)CCC(F)(F)F)cc2C1=O was read as A1 apoptosis 2 1.0.
C[C@@H]1CN([C@H](C)CO)C(=O)c2cc(N(C)C)ccc2O[C@@H]1CN(C)Cc1ccc(Oc2ccccc2)cc1 was read as A1 apoptosis 2 0.7.
C[C@@H]1CCCCO[C@@H](CN(C)S(=O)(=O)c2ccc(Cl)cc2)[C@@H](C)CN([C@@H](C)CO)C(=O)c2cc(NC(=O)CCCN(C)C)ccc2O1 was read as A1 apoptosis 2 -0.7.
C[C@@H]1CN([C@@H](C)CO)C(=O)c2cccc(NC(=O)c3nc4ccccc4s3)c2O[C@@H]1CN(C)Cc1ccc(Cl)c(Cl)c1 was read as A1 apoptosis 2 0.6.
C[C@H]1CCCCO[C@@H](CN(C)C)[C@@H](C)CN([C@@H](C)CO)C(=O)c2cc(NC(=O)c3ccccc3)ccc2O1 was read as A1 apoptosis 2 0.5.
For COc1ccc(NC(=O)Nc2ccc3c(c2)C(=O)N([C@H](C)CO)C[C@@H](C)[C@H](CN(C)Cc2ccc4c(c2)OCO4)OCCCC[C@H](C)O3)cc1 the results were A1 apoptosis 2 1.3.
For C[C@H]1CN([C@@H](C)CO)C(=O)Cc2cc(NS(=O)(=O)c3ccccc3)ccc2O[C@H]1CN(C)C(=O)Nc1cccc2ccccc12 the results were A1 apoptosis 2 0.8.
`CO[C@H]1O[C@H](CO)[C@@H](OC(=O)Nc2cccc(F)c2)[C@@H]2OC(=O)[C@@H](Cc3ccccc3)C/C=C/C[C@H](Cc3ccccc3)C(=O)O[C@@H]12` gave A1 apoptosis 2 0.3.
COc1ccc(S(=O)(=O)N(C)C[C@H]2Oc3c(NC(=O)c4cc(C)nn4C)cccc3C(=O)N([C@@H](C)CO)C[C@@H]2C)cc1 was read as A1 apoptosis 2 -1.5.
Screening O=C(NO)c1cccc(C(=O)N/N=C/c2ccc(B(O)O)cc2)c1 returned A1 apoptosis 2 -2.6.
For CC(C)NC(=O)N(C)C[C@@H]1Oc2ncc(Br)cc2C(=O)N([C@H](C)CO)C[C@@H]1C the results were A1 apoptosis 2 -1.0.
Screening C[C@H]1CN([C@@H](C)CO)C(=O)c2cccc(NC(=O)c3cnccn3)c2O[C@H]1CN(C)S(C)(=O)=O returned A1 apoptosis 2 -1.2.
C[C@@H]1CN([C@@H](C)CO)C(=O)Cc2cc(NS(=O)(=O)c3ccc(Cl)cc3)ccc2O[C@H]1CN(C)C(=O)Nc1ccc(F)cc1 was read as A1 apoptosis 2 -0.1.
Screening O=C1C2C=C(Br)[C@H](C[C@@H]2OCCCCCCO)[C@@]12CO2 returned A1 apoptosis 2 0.2.
COc1ccc(NC(=O)N(C)C[C@H]2Oc3c(NC(=O)Nc4c(C)noc4C)cccc3C(=O)N([C@H](C)CO)C[C@H]2C)cc1 was read as A1 apoptosis 2 0.2.
`C[C@H](CO)N1C[C@H](C)[C@@H](CN(C)Cc2ccc3c(c2)OCO3)Oc2ccc(NS(C)(=O)=O)cc2CC1=O` gave A1 apoptosis 2 1.3.
Screening COc1ccc(NC(=O)Nc2ccc3c(c2)C(=O)N([C@@H](C)CO)C[C@H](C)[C@@H](CN(C)S(C)(=O)=O)O3)cc1 returned A1 apoptosis 2 2.5.
For Cc1noc(C)c1S(=O)(=O)Nc1ccc2c(c1)CC(=O)N([C@@H](C)CO)C[C@H](C)[C@H](CN(C)Cc1ccc(Oc3ccccc3)cc1)O2 the results were A1 apoptosis 2 0.0.
For C[C@@H]1CCCCO[C@@H](CN(C)Cc2ccc(C(F)(F)F)cc2)[C@H](C)CN([C@@H](C)CO)C(=O)c2cc(NC(=O)c3ccncc3)ccc2O1 the results were A1 apoptosis 2 -1.2.
`C[C@@H]1CN([C@H](C)CO)C(=O)Cc2cc(NS(=O)(=O)c3ccc(F)cc3)ccc2O[C@H]1CN(C)C(=O)Nc1ccc(F)cc1` gave A1 apoptosis 2 0.4.
For Cc1ccc(S(=O)(=O)N(C)C[C@@H]2OCc3cnnn3CCCC(=O)N([C@@H](C)CO)C[C@@H]2C)cc1 the results were A1 apoptosis 2 -1.8.
`COc1ccc(NC(=O)N(C)C[C@@H]2Oc3ccc(NC(=O)Nc4ccccc4)cc3C(=O)N([C@H](C)CO)C[C@@H]2C)cc1` gave A1 apoptosis 2 0.7.
Screening C[C@H]1CN([C@@H](C)CO)C(=O)Cc2cc(NC(=O)c3ccncc3)ccc2O[C@@H]1CN(C)C(=O)Nc1ccc(C(F)(F)F)cc1 returned A1 apoptosis 2 -1.5.
`COc1ccc(NC(=O)Nc2ccc3c(c2)C(=O)N([C@H](C)CO)C[C@@H](C)[C@@H](CN(C)S(=O)(=O)c2ccc(OC)cc2)O3)cc1` gave A1 apoptosis 2 -0.3.
Screening C[C@@H]1CN([C@H](C)CO)C(=O)Cc2cc(NC(=O)Nc3cccc4ccccc34)ccc2O[C@H]1CN(C)Cc1ccc(C(=O)O)cc1 returned A1 apoptosis 2 0.5.
`CC(C)NC(=O)Nc1cccc2c1O[C@@H](CN(C)C)[C@@H](C)CN([C@@H](C)CO)C2=O` gave A1 apoptosis 2 0.5.
For COc1ccc(S(=O)(=O)N(C)C[C@H]2OCCCC[C@H](C)Oc3ccc(NC(=O)Nc4ccc(F)cc4)cc3C(=O)N([C@H](C)CO)C[C@H]2C)cc1 the results were A1 apoptosis 2 1.3.
Screening Cc1noc(C)c1S(=O)(=O)Nc1ccc2c(c1)C(=O)N([C@H](C)CO)C[C@H](C)[C@H](CN(C)CC1CCCCC1)OCCCC[C@H](C)O2 returned A1 apoptosis 2 -0.7.
`C[C@@H]1CCCCO[C@H](CN(C)C(=O)C2CCCCC2)[C@@H](C)CN([C@H](C)CO)C(=O)c2cc(NC(=O)Nc3ccccc3)ccc2O1` gave A1 apoptosis 2 -0.6.
C[C@@H]1CCCCO[C@H](CN(C)Cc2ccc(C(=O)O)cc2)[C@@H](C)CN([C@H](C)CO)C(=O)c2cc(NS(=O)(=O)c3cn(C)cn3)ccc2O1 was read as A1 apoptosis 2 0.9.
C[C@H](CO)N1C[C@H](C)[C@H](CN(C)Cc2ccc(-c3ccccc3)cc2)Oc2ccc(NC(=O)Nc3ccc(C(F)(F)F)cc3)cc2C1=O was read as A1 apoptosis 2 -0.2.

Four entries picked at random from the list so far:
COc1ccc(S(=O)(=O)Nc2ccc3c(c2)CC(=O)N([C@@H](C)CO)C[C@@H](C)[C@@H](CN(C)Cc2ccc4c(c2)OCO4)O3)cc1 was read as A1 apoptosis 2 0.2.
Screening Cc1noc(C)c1NC(=O)Nc1ccc2c(c1)C(=O)N([C@@H](C)CO)C[C@H](C)[C@H](CN(C)CC1CCCCC1)OCCCC[C@@H](C)O2 returned A1 apoptosis 2 0.3.
C[C@@H]1CCCCO[C@H](CN(C)Cc2ccc(C(=O)O)cc2)[C@@H](C)CN([C@H](C)CO)C(=O)c2cc(NS(=O)(=O)c3cn(C)cn3)ccc2O1 was read as A1 apoptosis 2 0.9.
For C[C@@H]1CCCCO[C@@H](CN(C)S(=O)(=O)c2cccs2)[C@@H](C)CN([C@@H](C)CO)C(=O)c2cc(N(C)C)ccc2O1 the results were A1 apoptosis 2 -1.4.

Part of the list above in order of formula weight, falling.
Screening Cc1noc(C)c1S(=O)(=O)Nc1ccc2c(c1)C(=O)N([C@H](C)CO)C[C@H](C)[C@H](CN(C)CC1CCCCC1)OCCCC[C@H](C)O2 returned A1 apoptosis 2 -0.7.
`C[C@@H]1CCCCO[C@H](CN(C)C(=O)C2CCCCC2)[C@@H](C)CN([C@H](C)CO)C(=O)c2cc(NC(=O)Nc3ccccc3)ccc2O1` gave A1 apoptosis 2 -0.6.
`COc1ccc(NC(=O)N(C)C[C@@H]2Oc3ccc(NC(=O)Nc4ccccc4)cc3C(=O)N([C@H](C)CO)C[C@@H]2C)cc1` gave A1 apoptosis 2 0.7.

Assay outcomes from PubChem.
